From PubChem BioAssay
rRNA inh HTS = reduced GFP signal of wild-type E. coli, primary screen, bacterial rRNA inhibitor project, GFP/RFP fluorescence, OD600, single point; E. coli WT GFP vs humanized-ribosome RFP mutants, 24 h; stronger effect = lower value; DMSO median 0, no signal -100; GFP signal change (wild-type ribosome), % (no concentration beside the values); 350,000 tested, 1.6% active; AID 720706, 2013;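 active = significant combined selectivity score with lowered wild-type GFP, culture density cut under 30%, mutant RFP and density less affected; inactive = any of these conditions unmet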; note: one replicate is shown; some compounds called inactive have numbers as strong as hits
FGF22 binding = binders of human FGF22 protein, primary screen, FGF22 synaptogenesis inhibitor project, biophysical, thermal shift, single point; Fibroblast growth factor 22 (Homo sapiens), Q9HCT0; recombinant FGF22 thermal shift, SYPRO orange fluorescence; percent of sucrose octasulfate shift, DMSO zero; calls only at 9.99 µM; 340,000 tested, 1.5% active; AID 651658, 2012;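 active = melting point raised past a set limit in the mean and every replicate; three in four hits are not shown here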
Target sequence (Q9HCT0 whole entry, looked up): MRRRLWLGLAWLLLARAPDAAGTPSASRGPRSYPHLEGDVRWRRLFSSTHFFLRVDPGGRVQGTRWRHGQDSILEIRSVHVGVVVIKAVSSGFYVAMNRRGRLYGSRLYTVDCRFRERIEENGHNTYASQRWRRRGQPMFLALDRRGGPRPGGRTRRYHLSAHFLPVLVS
rRNA inh HTS OD600 = further read-out of rRNA inh HTS, marked with its call; OD600 change, %; measured here: OD600 growth;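 optical density of the mix in the first replicate; 0 = DMSO median and -100 = no signal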
rRNA inh HTS RFP = further read-out of rRNA inh HTS, marked with its call; RFP signal change, %; measured here: RFP humanized mutant strains;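 first replicate; 0 = DMSO median and -100 = no signal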
Starred values were filed as active, the others as inactive; i = inactive; & = joins results of further samples. An excerpt; rates above refer to the full screens.

SMILES	rRNA inh HTS	rRNA inh HTS OD600	rRNA inh HTS RFP	FGF22 binding
COCC(=O)Nc1ccc2c(c1)[C@H]1C[C@H](CC(=O)NCc3ccc(Cl)cc3)O[C@H](CO)[C@H]1O2	-3	-11	-1.0	i
CC(C)NC(=O)Nc1ccc2c(c1)C(=O)N(C)[C@H]1CC[C@@H](CC(=O)NCC(F)(F)F)O[C@@H]1CO2	0	2	0.5	i
O=C(C[C@H]1CC[C@H]2[C@@H](COC[C@@H](O)CN2Cc2ccc(C(F)(F)F)cc2)O1)N1CCc2ccccc2C1	-54	-70	-13	i
C[C@@H]1CCCCO[C@@H](CN(C)Cc2ccc(C(F)(F)F)cc2)[C@H](C)CN([C@H](C)CO)C(=O)c2cc(NC(=O)C3CCCCC3)ccc2O1	3	5	0.9	i
C[C@@H]1CN([C@@H](C)CO)C(=O)c2cc(NS(=O)(=O)c3ccc(Cl)cc3)ccc2O[C@@H](C)CCCCO[C@H]1CN(C)CC1CCCCC1	-28	-52	12	i
COc1ccc(CN(C)C[C@@H]2OCCCC[C@H](C)Oc3ccc(NS(=O)(=O)c4c(C)noc4C)cc3C(=O)N([C@@H](C)CO)C[C@@H]2C)cc1	-1	7	-0.3	i
Cc1noc(C)c1NC(=O)N(C)C[C@H]1OCCCC[C@@H](C)Oc2ccc(NC(=O)Nc3cccc4ccccc34)cc2C(=O)N([C@@H](C)CO)C[C@H]1C	-15*	8.8*	5.3*	i
Cc1nn(C)cc1NC(=O)C[C@H]1CC[C@@H]2[C@H](COc3ccc(NC(=O)C(C)C)cc3C(=O)N2C)O1	1	4	0.6	i
C[C@@H](O)C#Cc1ccc2c(c1)O[C@H](CN(C)CC1CCOCC1)[C@@H](C)CN([C@@H](C)CO)S2(=O)=O	1	2	-2.2	i
O=C(C1CC1)N1CCCCN2[C@@H](CO)[C@@H](c3ccc(-c4cccc(F)c4)cc3)[C@@H]2C1	2	-7	1.0	i
C[C@@H]1CCCCO[C@@H](CN(C)Cc2ccc(C(F)(F)F)cc2)[C@H](C)CN([C@H](C)CO)C(=O)c2cc(NC(=O)Nc3ccccc3)ccc2O1	9	-9	8.9	i
CCCNC(=O)C[C@H]1C[C@H]2c3cc(NC(=O)CN(C)C)ccc3O[C@H]2[C@H](CO)O1	3	11	-2.4	i
C[C@@H]1CCCCO[C@H](CN(C)S(=O)(=O)c2ccc(F)cc2)[C@H](C)CN([C@H](C)CO)C(=O)c2cc(NS(=O)(=O)c3ccc(F)cc3)ccc2O1	-2	-2	4.2	i
COc1ccc(S(=O)(=O)Nc2ccc3c(c2)C(=O)N([C@@H](C)CO)C[C@@H](C)[C@@H](CN(C)Cc2ccccc2)OCCCC[C@H](C)O3)cc1	1	-25	11	i
C[C@H](CO)N1C[C@H](C)[C@H](CN(C)C(=O)CCCN(C)C)OCCCC[C@H](C)Oc2ccc(NC(=O)Nc3ccc4c(c3)OCO4)cc2C1=O	2	4	-2.0	i
Cc1noc(C)c1NC(=O)Nc1ccc2c(c1)CC(=O)N([C@H](C)CO)C[C@@H](C)[C@H](CN(C)S(C)(=O)=O)O2	0	9	-0.8	i
CCNC(=O)Nc1ccc2c(c1)C(=O)N(C)[C@H]1CC[C@H](CC(=O)NCC3CC3)O[C@@H]1CO2	2	5	-0.7	i
CC(C)C(=O)Nc1ccc2c(c1)C(=O)N(C)[C@@H]1CC[C@@H](CC(=O)N[C@H](C)c3ccccc3)O[C@H]1CO2	4	10	3.5	i
CC1(C(=O)Nc2ccc3c(c2)OCCO3)CSCC(=O)N1CC(F)(F)F (configuration not stated)	3	15	3.1	i
COc1ccccc1NC(=O)N1C[C@@H]2N[C@H](C1)C2c1ccc(/C=C/c2ccccc2)cc1 (some centres not stated)	-54&-59	-77&-78	-12&-16	i

Some entries already given with just rRNA inh HTS OD600, FGF22 binding and rRNA inh HTS.
structure | rRNA inh HTS OD600 | FGF22 binding | rRNA inh HTS
COCC(=O)Nc1ccc2c(c1)[C@H]1C[C@H](CC(=O)NCc3ccc(Cl)cc3)O[C@H](CO)[C@H]1O2 | -11 | i | -3
CC(C)C(=O)Nc1ccc2c(c1)C(=O)N(C)[C@@H]1CC[C@@H](CC(=O)N[C@H](C)c3ccccc3)O[C@H]1CO2 | 10 | i | 4
C[C@@H]1CN([C@@H](C)CO)C(=O)c2cc(NS(=O)(=O)c3ccc(Cl)cc3)ccc2O[C@@H](C)CCCCO[C@H]1CN(C)CC1CCCCC1 | -52 | i | -28
C[C@@H]1CCCCO[C@@H](CN(C)Cc2ccc(C(F)(F)F)cc2)[C@H](C)CN([C@H](C)CO)C(=O)c2cc(NC(=O)Nc3ccccc3)ccc2O1 | -9 | i | 9
Cc1noc(C)c1NC(=O)N(C)C[C@H]1OCCCC[C@@H](C)Oc2ccc(NC(=O)Nc3cccc4ccccc34)cc2C(=O)N([C@@H](C)CO)C[C@H]1C | 8.8* | i | -15*

(further entries)
SMILES	rRNA inh HTS	rRNA inh HTS OD600	rRNA inh HTS RFP	FGF22 binding
COc1ccc(S(=O)(=O)Nc2ccc3c(c2)C(=O)N([C@@H](C)CO)C[C@@H](C)[C@H](CN(C)Cc2ccccc2)OCCCC[C@H](C)O3)cc1	-1	0	3.5	i
COc1ccc(S(=O)(=O)N(C)C[C@H]2Oc3c(NS(=O)(=O)c4ccc(Cl)cc4)cccc3C(=O)N([C@@H](C)CO)C[C@H]2C)cc1	0	-16	1.4	i
Cc1noc(C)c1NC(=O)N(C)C[C@@H]1Oc2ccc(NS(C)(=O)=O)cc2CC(=O)N([C@@H](C)CO)C[C@@H]1C	2	3	-0.9	i
C[C@@H]1CN(c2ccc(N3CCNC[C@H]3C)cc2C#N)CCN1Cc1ccccc1	11	18	1.3	i
CN1C(=O)c2cc(NC(=O)C3CC3)ccc2OC[C@@H]2O[C@H](CC(=O)NCc3cccc(F)c3)CC[C@H]21	0	3	-2.5	i
CC(C)C(=O)Nc1ccc2c(c1)C(=O)N(C)[C@@H]1CC[C@H](CC(=O)NCc3cccc(F)c3)O[C@H]1CO2	5	5	-4.2	i
Cc1ccc(C)c([N+](=O)[O-])c1	7	9	0.6	i
O=C(c1ccncc1)N1CC[C@@H]2[C@H]1c1cc(Br)ccc1N[C@@H]2CO	6	11	-4.5	i
COc1ccc(NC(=O)Nc2ccc3c(c2)CC(=O)N([C@H](C)CO)C[C@H](C)[C@H](CN(C)C(=O)Nc2ccc(C(F)(F)F)cc2)O3)cc1	-1	-2	2.0	i
CNC(=O)C[C@@H]1CC[C@H]2[C@@H](COC[C@@H](O)CN2Cc2ccc(Cl)c(Cl)c2)O1	-9	-1	-4.0	i
CS(=O)(=O)Nc1ccc2c(c1)[C@@H]1C[C@@H](CC(=O)N3CCCCC3)O[C@H](CO)[C@@H]1O2	3	7	1.1	i
CNC(=O)C[C@@H]1CC[C@@H]2[C@H](COc3ccc(NC(=O)C4CC4)cc3C(=O)N2C)O1	2	5	-0.9	i
CCNC(=O)C[C@@H]1CC[C@H]2[C@H](COc3ccc(NC(=O)Nc4cccc(OC)c4)cc3C(=O)N2C)O1	1	0	2.1	i
C[C@H](O)[C@@H]1C(=O)N2CCc3c([nH]c4cccc(-c5ccccc5)c34)[C@@H]2C[C@@H]1N(C)C(=O)OCc1ccccc1	4	-1	8.6	i
C[C@@H]1CN([C@H](C)CO)C(=O)c2cc(NC(=O)Nc3ccc(C(F)(F)F)cc3)ccc2O[C@H]1CN(C)C(=O)Nc1cccc2ccccc12	7	13	5.9	i
COc1cc(CN2C[C@@H]3N[C@H](C2)C3c2ccc(-c3cncnc3)cc2)cc(OC)c1 (some centres not stated)	-3&0	1&-8	0.1&0.0	i
Cc1cc(C)cc(NC(=O)Nc2ccc3c(c2)C(=O)N(C)[C@H]2CC[C@@H](CC(=O)O)O[C@H]2CO3)c1	-1	-7	0.4	i
C[C@H]1CN([C@@H](C)CO)C(=O)Cc2cc(NC(=O)Cc3ccccc3)ccc2O[C@@H]1CN(C)S(=O)(=O)c1cn(C)cn1	5	6	-1.7	i
C=CCN=C1NC(c2ccc(C(F)(F)F)cc2)C(C(=O)OC)=C(C)N1Cc1ccccc1C(F)(F)F (configuration not stated)	-38	-79	-14	i
C[C@@H]1CCCCO[C@@H](CN(C)C(=O)Nc2ccccc2)[C@H](C)CN([C@@H](C)CO)C(=O)c2cc(NS(=O)(=O)c3ccc(F)cc3)ccc2O1	-1	0	-3.3	i

Remaining list, next part:
| SMILES | rRNA inh HTS | rRNA inh HTS OD600 | rRNA inh HTS RFP | FGF22 binding |
| --- | --- | --- | --- | --- |
| COc1ccc(S(=O)(=O)Nc2ccc3c(c2)C(=O)N([C@@H](C)CO)C[C@H](C)[C@H](CN(C)Cc2ccc(Cl)c(Cl)c2)OCCCC[C@@H](C)O3)cc1 | -1 | 4 | 1.0 | i |
| COc1ccc(NC(=O)N(C)C[C@@H]2Oc3ccc(NC(=O)Nc4ccc(C(F)(F)F)cc4)cc3C(=O)N([C@@H](C)CO)C[C@H]2C)cc1 | 3 | -1 | -0.9 | i |
| Cc1noc(C)c1NC(=O)Nc1ccc2c(c1)C(=O)N([C@@H](C)CO)C[C@@H](C)[C@H](CN(C)Cc1ccc(C(=O)O)cc1)OCCCC[C@H](C)O2 | 4 | 5 | -2.0 | i |
| CCN(CC)CCCNC(=O)c1cc2cc(Cl)ccc2nc1N | 2 | -2 | 4.1 | i |
| CCCNC(=O)C[C@H]1CC[C@@H]2[C@H](COc3ccc(NC(=O)c4cc(F)cc(F)c4)cc3C(=O)N2C)O1 | 2 | 9 | 0.4 | i |
| C[C@@H]1CCCCO[C@@H](CN(C)C(=O)C2CCCCC2)[C@@H](C)CN([C@@H](C)CO)C(=O)c2cc(NC(=O)CCCN(C)C)ccc2O1 | 1 | 5 | -1.5 | i |
| CCNC(=O)Nc1ccc2c(c1)C(=O)N(C)[C@@H]1CC[C@H](CC(=O)NCC3CC3)O[C@H]1CO2 | 1 | 6 | 0.7 | i |
| COc1ccc(NC(=O)N(C)C[C@@H]2Oc3c(NS(=O)(=O)c4ccc(F)cc4)cccc3C(=O)N([C@H](C)CO)C[C@H]2C)cc1 | 0 | 7 | -0.4 | i |
| Cn1cc(CCOCc2ccccn2)c2ccccc21 | 6 | 14 | 5.4 | i |
| C[C@H]1CN([C@@H](C)CO)C(=O)c2cc(NS(=O)(=O)c3ccc(F)cc3)ccc2O[C@H]1CN(C)S(=O)(=O)c1ccccc1 | 2 | -1 | 7.5 | i |
| Cc1noc(C)c1S(=O)(=O)N(C)C[C@@H]1OCCCC[C@@H](C)Oc2ccc(NC(=O)Nc3ccc4c(c3)OCO4)cc2C(=O)N([C@@H](C)CO)C[C@@H]1C | 1 | -2 | -0.6 | i |
| CNC(=O)C[C@@H]1CC[C@@H]2[C@@H](COc3ccc(NC(=O)Cc4cccs4)cc3C(=O)N2C)O1 | 3 | 4 | -0.6 | i |
| C[C@@H]1CN([C@@H](C)CO)C(=O)c2cc(NC(=O)CCC(F)(F)F)ccc2O[C@@H](C)CCCCO[C@H]1CN(C)C(=O)Cc1ccccc1 | 4 | 3 | 1.7 | i |
| CN(C)C(=O)c1cccc(-c2ccc3c(c2)[C@@H]2[C@@H](CCN2C(=O)Cc2ccccn2)[C@@H](CO)N3C)c1 | 7 | 16 | 3.9 | i |
| COc1ccc(NC(=O)N(C)C[C@@H]2Oc3ccc(NC(=O)Nc4ccc5c(c4)OCO5)cc3CC(=O)N([C@H](C)CO)C[C@@H]2C)cc1 | -2 | 9 | -1.1 | i |
| N#Cc1ccc(-c2ccc3c(c2)[C@H]2[C@H](CCN2S(=O)(=O)c2ccccc2F)[C@H](CO)N3)cc1 | -29 | -35 | -3.4 | i |
| C[C@@H]1CN([C@@H](C)CO)C(=O)c2c(c3ccccc3n2C)-c2ccccc2CO[C@H]1CN(C)Cc1cccc(C(=O)O)c1 | -1 | 7 | -5.1 | i |
| COc1ccc(CN(C)C[C@@H]2OCCCC[C@@H](C)Oc3ccc(NS(=O)(=O)c4ccc(OC)cc4)cc3C(=O)N([C@@H](C)CO)C[C@H]2C)cc1 | 1 | -7 | -3.4 | i |
| CC(=O)N(C)C[C@H]1[C@H](c2ccc(-c3cccc(C#N)c3)cc2)[C@@H](CO)N1C(C)=O | 2 | 8 | -3.4 | i |
| C[C@@H]1ON(C)[C@H]2C[C@H]3c4cc(-c5cc6ccccc6o5)ccc4CCN3C[C@@H]12 | -47 | -78 | -14 | i |
| C[C@@H]1CCCCO[C@H](CN(C)C(=O)Cc2ccccc2)[C@H](C)CN([C@H](C)CO)C(=O)c2cc(NS(=O)(=O)c3ccc(F)cc3)ccc2O1 | 1 | -3 | 1.7 | i |
| COc1ccc(S(=O)(=O)Nc2ccc3c(c2)CC(=O)N([C@@H](C)CO)C[C@@H](C)[C@@H](CN(C)S(=O)(=O)c2ccc(F)cc2)O3)cc1 | -3 | -6 | 1.1 | i |
| O=C(C[C@H]1C[C@H]2c3cc(NC(=O)NC4CCCC4)ccc3O[C@H]2[C@H](CO)O1)NCc1cc(F)ccc1F | 1 | 14 | 0.6 | i |
| CC(C)NC(=O)N1CC[C@@H]2[C@@H](CO)N(C)c3ccc(-c4cccc(F)c4)cc3[C@@H]21 | 3 | -29 | -0.5 | i |
| O=C(C[C@@H]1CC[C@H]2[C@@H](COC[C@@H](O)CN2Cc2nccs2)O1)NCc1ccc(Oc2ccccc2)cc1 | -1 | -6 | -2.1 | i |
| O=C(C[C@H]1C[C@H]2c3cc(NC(=O)Nc4ccccc4)ccc3O[C@H]2[C@@H](CO)O1)NCc1cccnc1 | -1 | -7 | -0.8 | i |
